Bioassay records as filed in PubChem BioAssay.
Mtb H37Rv = M. tuberculosis H37Rv growth inhibitors, H37Rv strain (AID 1626); M. tuberculosis H37Rv growth inhibition; higher % means a stronger effect; inhibition, % at 10 µM; hits with a dose series show IC50 in µM; actives 0.95% (n = 220,000);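 active = confirmed in a dose series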;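 also: bacteria incubated seven days before Alamar blue readout; 0% = bacteria only wells and 100% = bacteria with antibiotic wells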
Arbovirus anti = blocks arbovirus infection | arbovirus infection cell-based antiviral screen | inhibition, % at 10 µM | actives 0.37% (n = 200,000) | AID 1251;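 active = inhibition from about 30%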;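 also: bluetongue infection of BSR cells; cell survival read as ATP light after 72 h; 0% = infected wells without compound and 100% = uninfected wells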
RecA splice inh = blocks M. tuberculosis RecA intein splicing | P9WHJ3 | AID 2221 | cell-free RecA intein splicing, fluorescence | actives 0.75% (n = 290,000) | inhibition, %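 (about 9 µM by stock and volumes)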; in the data active = inhibition above about 30%;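 also: 0% = vehicle wells and 100% = reference inhibitor control wells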
Target sequence (P9WHJ3 whole entry, looked up, canonical isoform): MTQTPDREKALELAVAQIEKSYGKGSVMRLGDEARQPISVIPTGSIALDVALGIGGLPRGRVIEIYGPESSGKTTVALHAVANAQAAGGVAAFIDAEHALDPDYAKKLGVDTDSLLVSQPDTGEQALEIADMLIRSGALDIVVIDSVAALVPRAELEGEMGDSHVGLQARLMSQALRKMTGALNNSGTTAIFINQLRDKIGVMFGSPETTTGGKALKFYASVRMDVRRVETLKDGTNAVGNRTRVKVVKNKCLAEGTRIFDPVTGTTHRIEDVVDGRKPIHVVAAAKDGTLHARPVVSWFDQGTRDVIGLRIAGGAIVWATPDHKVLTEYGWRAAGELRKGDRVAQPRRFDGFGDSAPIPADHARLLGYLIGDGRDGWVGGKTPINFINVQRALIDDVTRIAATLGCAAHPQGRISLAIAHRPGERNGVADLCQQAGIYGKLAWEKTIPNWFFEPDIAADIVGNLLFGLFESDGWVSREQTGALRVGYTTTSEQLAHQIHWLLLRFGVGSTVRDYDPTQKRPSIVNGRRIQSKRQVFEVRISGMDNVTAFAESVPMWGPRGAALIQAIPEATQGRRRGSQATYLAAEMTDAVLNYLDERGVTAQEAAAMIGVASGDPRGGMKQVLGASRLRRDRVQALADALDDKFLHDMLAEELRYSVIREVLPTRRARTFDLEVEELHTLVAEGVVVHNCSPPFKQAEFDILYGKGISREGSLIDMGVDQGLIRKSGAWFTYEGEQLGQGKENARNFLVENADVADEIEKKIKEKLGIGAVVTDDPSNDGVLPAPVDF
Mtb betalactam = beta-lactam sensitization of Mtb H37Rv. M. tuberculosis H37Rv growth with meropenem, percent inhibition; hits of this screen are not shown here. inhibition, % at 25 µM. actives 0.27% (n = 330,000);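 active = about 74% or more and at least 40 points above the plate without the antibiotic, then above 30% in a dose series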;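 also: growth measured after seven days incubation then overnight dye step; 0% = bacteria only wells and 100% = bacteria with antibiotic; twin plates without the antibiotic show which effects depend on it; some results filed as inactive read as strong as hits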
YopH PTP inh = blocks Yersinia enterocolitica YopH tyrosine phosphatase; fluorescence Ex485/Em525; inhibition, %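 (about 10 µM by stock and volumes)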; actives 0.16% (n = 140,000); AID 898;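 active = inhibition of 50% or more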;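 also: controls were vehicle for no effect and minimum signal wells for full effect; inactives centre near -20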
Arbovirus anti repeat = further read-out of Arbovirus anti, marked with its call; inhibition, %; measured here: 10K subset replicate screen; many hits read low in the repeat;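 first of two repeat runs on a subset; 0% = infected and 100% = uninfected wells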
* hit, by the source's call; / = not tested or not shown. Not all compounds are listed, so the mix of outcomes need not match the whole.

SMILES | Mtb H37Rv | Arbovirus anti | RecA splice inh | Mtb betalactam | YopH PTP inh | others
Cc1ccc(Nc2cc(=O)n(C3CCCCC3)c(=O)[nH]2)cc1C | 2% | 5 | 4.5 | 9 | -16
O=C1C2CCCCC2C(=O)N1c1nccs1 (stereo not given) | / | / | -1.4 | -2 | /
CCNC(=S)N/N=C/c1cccs1 | 14% | 0 | -1.0 | 35 | -10
COc1ccc(OC)c(C2=NOC(C(=O)Nc3c(C)n(C)n(-c4ccccc4)c3=O)C2)c1 (stereo not given) | 3% | 6 | 0.6 | 0 | / | Arbovirus anti repeat=2
COc1ccc(-c2coc3cc(O)ccc3c2=O)cc1 | -12% | / | -1.7 | 0 | /
COc1ccc(-n2c(CNC(=O)c3cc(OC)c(OC)c(OC)c3)n[nH]c2=S)cc1 | -3% | 5 | -1.0 | -6 | -2
COC(=O)C(C)Oc1cc(C)ccc1COc1ccc(-n2nc(C)n(C(F)F)c2=O)cc1 (stereo not given) | / | / | 8.7 | 99 | /
COc1ccc(C2CC3(CC(C)(C)NC(=S)N3)Oc3cc(O)cc(C)c32)cc1OC (stereo not given) | 3% | -3 | -0.7 | -8 | /
O=C(NCCc1c[nH]c2ccccc12)C(=O)NCC1OCCN1S(=O)(=O)c1ccccc1 (stereo not given) | 8% | -8 | 0.5 | -8 | /
O=C(Nc1ccn(Cc2ccccc2)n1)c1n[nH]c([N+](=O)[O-])c1Cl | -3% | 50* | 5.4 | 13 | -16
CCCCSc1nc2c(cnn2-c2ccc(C)c(C)c2)c(=O)[nH]1 | 8% | -2 | -5.3 | 1 | -44 | Arbovirus anti repeat=-11
CN(C)C(=O)N1CCC(C(=O)NC2CCCCCCC2)CC1 | -1% | 9 | -1.6 | 1 | -15
COc1ccc(C2C(C(C)=O)=C(O)C(=O)N2CCCn2ccnc2)cc1OC (stereo not given) | -4% | / | 2.9 | 3 | /
O=C(CCNC(=O)C1CCN(S(=O)(=O)c2ccc(F)cc2)CC1)NCc1ccccc1 | / | / | -3.6 | 1 | /
O=C(c1ccc2nc(Cc3ccccc3F)oc2c1)N1CC[C@H](O)C1 | / | / | -1.4 | -5 | /
O=C(O)CSc1nnc(CNc2ccc(Cl)cc2)n1Cc1ccccc1 | -5% | 9 | -2.5 | -3 | -37
CC(=O)Nc1ccc(/C(C)=N/NC(=O)c2ccccc2Cl)cc1 | -1% | 7 | -0.6 | 3 | -14
CC1(C)CC(NC(=S)NCc2ccc3c(c2)OCO3)CC(C)(C)N1 | 0% | 5 | 2.3 | 2 | /
CC(=O)c1cc2c(cc1NC(=O)CCn1cnnn1)OCO2 | / | / | -0.8 | 7 | /
COc1ccc(NC(=O)CNC(=O)Cn2ccc3ccccc3c2=O)c(OC)c1 | / | / | 4.8 | 0 | /
O=C1NC(=O)N(c2ccccc2)C1=O | / | / | -0.6 | -1 | /
O=C(CCC1CCCC1)NCc1cccs1 | 5% | 1 | / | 11 | -2
Cc1cc(N2CCN(C(=O)c3ccco3)CC2)n2ncnc2n1 | 1% | -2 | -2.8 | 4 | -38
Cc1ccccc1OCC(=O)Nc1ccc(S(=O)(=O)Nc2ccccn2)cc1 | -9% | -4 | -5.3 | 4 | -47
COc1ccc(-c2c(N)n[nH]c2C)cc1OC | -2% | -2 | 0.6 | -8 | /
Cc1cc(C)n2nc(SCc3nnc(SCc4ccccc4Cl)s3)nc2n1 | -3% | 8 | -0.4 | 8 | -21
CS(=O)(=O)N(CC(=O)N1CCN(Cc2ccc3c(c2)OCO3)CC1)Cc1ccc(Cl)cc1 | -2% | -5 | -0.7 | -1 | -8
O=C(/C=C/c1cn(-c2ccccc2)nc1-c1ccc2c(c1)OCCO2)NCCO | 5% | -9 | 0.1 | 46 | /
Cc1csc(NC(=O)c2cc3c(s2)CCC3)n1 | 11% | -32 | -2.3 | 39 | -42
O=c1[nH]c(C2CCCN(S(=O)(=O)c3ccccc3Cl)C2)nc2c1nnn2Cc1ccc2c(c1)OCCO2 (stereo not given) | / | / | 3.6 | 88 | /
ClC1=CCC2CN(CCN3CCCCC3)CC2C1 (stereo not given) | -6% | / | -0.5 | -2 | /
CCOc1ccc(OCCOCCN2CCOCC2)cc1 | -13% | -2 | -0.2 | -8 | 1
Cc1cc(C)c(S(=O)(=O)Nc2ccc(N3CCOCC3)cc2)c(C)c1 | -6% | / | -5.0 | 2 | /
O=C(CC1C(=O)NCCN1Cc1ccccc1C(F)(F)F)NC1CCCCC1 (stereo not given) | / | / | 0.5 | 7 | /
O=c1cc(CN2CCN(c3ccc(F)cc3)CC2)c2cc3c(cc2o1)CCCC3 | 2% | -1 | 1.0 | -4 | -5
O=C(O)c1nn(-c2ccc(F)cc2)ccc1=O | / | / | 1.9 | -4 | /
COc1ccc(C(=O)CSc2nnc(-c3ccco3)o2)cc1 | 3% | 12 | -0.3 | 9 | /
COc1cccc2c(N/N=C/c3ccc(O)c(O)c3)cc(C)nc12 | / | / | -2.2 | 6 | /
O=c1[nH]n2c(-c3ccccc3)nc(O)c2c2ccccc12 | 4% | -1 | -1.4 | 7 | /
O=C(NNS(=O)(=O)c1ccc(C(=O)NC2CCCC2)cc1)c1ccncc1 | 0% | 14 | 1.7 | 0 | /
CC1CC(C)CN(C(=O)COC(=O)C2CCN(S(=O)(=O)c3c(Cl)cccc3Cl)CC2)C1 (stereo not given) | / | / | 5.5 | -9 | /
Cc1cccc(OCCCN2CCOCC2)c1C | / | / | 0.8 | 5 | /
Cc1ccc(N(CC(=O)Nc2cc(Cl)ccc2Oc2ccccc2)S(C)(=O)=O)c(C)c1 | -5% | -21 | 20 | -10 | -12
Cc1ccc(NC(=O)COC(=O)C2CC2C)c(S(=O)(=O)N2CCCCC2)c1 (stereo not given) | -6% | 4 | -0.2 | 14 | -18
COc1ccc2nc(NC(=O)c3cccc(OCc4c(C)noc4C)c3)sc2c1 | / | -16 | -2.3 | -5 | -41

Quoted at random: 6 compounds from above.
SMILES | Mtb H37Rv | Arbovirus anti | RecA splice inh | Mtb betalactam | YopH PTP inh | others
O=c1cc(CN2CCN(c3ccc(F)cc3)CC2)c2cc3c(cc2o1)CCCC3 | 2% | -1 | 1.0 | -4 | -5
CC1CC(C)CN(C(=O)COC(=O)C2CCN(S(=O)(=O)c3c(Cl)cccc3Cl)CC2)C1 (stereo not given) | / | / | 5.5 | -9 | /
O=c1[nH]n2c(-c3ccccc3)nc(O)c2c2ccccc12 | 4% | -1 | -1.4 | 7 | /
Cc1cc(C)c(S(=O)(=O)Nc2ccc(N3CCOCC3)cc2)c(C)c1 | -6% | / | -5.0 | 2 | /
O=C(NNS(=O)(=O)c1ccc(C(=O)NC2CCCC2)cc1)c1ccncc1 | 0% | 14 | 1.7 | 0 | /
O=C(CC1C(=O)NCCN1Cc1ccccc1C(F)(F)F)NC1CCCCC1 (stereo not given) | / | / | 0.5 | 7 | /

Following part.
SMILES | Mtb H37Rv | Arbovirus anti | RecA splice inh | Mtb betalactam | YopH PTP inh | others
N#CCCSc1ccccc1NC(=O)c1cc(=O)c2ccccc2o1 | / | / | 0.2 | 0 | /
CCOC(=O)c1ccccc1-n1nnnc1C | -7% | / | -1.1 | -1 | /
CN1C(=O)CS/C1=N\NC(=O)COc1cccc2cccnc12 | 1% | 1 | -1.9 | -12 | /
CCOc1ccccc1CN1CCN(Cc2cccc3c2OCO3)CC1CCO (stereo not given) | -3% | -1 | 2.9 | -6 | /
Cc1ccc(CN(Cc2ccco2)C(=S)NCC(=O)NCc2cccnc2)cc1 | 2% | 11 | -0.3 | -11 | /
C=C(C)C1CC=C(CN2CCC(O)CC2)CC1 (stereo not given) | -4% | -6 | 0.5 | -2 | -19
Nc1nc(NCc2ccco2)nc(N2CCOCC2)c1[N+](=O)[O-] | -5% | / | 1.8 | -7 | /
COCCNC(=O)/C(C#N)=C/c1ccc(O)cc1 | -1% | / | -18 | -3 | /
COC(CNC(=O)c1ccc2c(c1)ncn2-c1cc(C)cc(C)c1)OC | / | / | -0.7 | 6 | /
CCOc1ccc(C(=O)CSCC(=O)O)cc1 | 1% | 2 | -4.9 | -11 | /
O=C(CCN1C(=O)/C(=C/c2cccc(Br)c2)SC1=S)NNC(=O)c1cccnc1 | 1% | 0 | -3.7 | / | -31
COC(=O)c1ccc(NC(=S)Nc2cccc(C)n2)cc1 | 9% | -12 | -3.4 | -3 | /
Nc1nonc1-n1nnc(C(=O)N/N=C/c2ccccc2O)c1CN1CCCC1 | / | / | 0.1 | 0 | /
CC1=CC2=NC(=O)/C(=C\c3cc(C)n(-c4ccc(F)cc4)c3C)C(=N)N2O1 | 15% | 4 | -3.4 | -5 | 1
O=S(=O)(NCCc1ccccc1)c1cccc2nsnc12 | 3% | 10 | 1.1 | 6 | -2
CC1(C)CC(=O)C=C(NNC(=O)c2ccccc2O)C1 | 0% | -6 | -9.2 | -2 | -46
COc1ccc(Br)cc1S(=O)(=O)NNC(=O)c1c(C)nc2ccccn12 | -2% | 1 | 1.3 | 3 | /
COc1ccc(NC(=O)CN2CCN(CC(=O)Nc3ccccc3Cl)CC2)cc1 | 0% | -12 | 0.1 | 43 | -44
COc1ccccc1NC(=O)Cc1noc(CSc2nnc(C(F)(F)F)n2C)n1 | 9% | 20 | / | 2 | /
NN1C(=O)/C(=C\c2ccco2)SC1=S | 12% | / | 2.4 | 3 | /
CS(=O)(=O)c1ccc(C(=O)OCC(=O)N(CCc2ccccc2)Cc2ccccc2)cc1 | / | / | 1.5 | 2 | /
Cc1cccnc1NC(=O)c1csnn1 | -10% | / | -2.6 | -1 | /
Cc1ccc(NC(=O)CSC(C)C(=O)NCCc2ccccn2)cc1 (stereo not given) | -2% | 6 | 0.3 | 0 | /
COc1ccc(S(=O)(=O)NNc2nc(C)cc(C)n2)cc1[N+](=O)[O-] | / | / | -0.8 | -7 | /
COc1ccc(CNC(=O)C2CCCN(C(=O)Nc3ccccc3OC)C2)cc1 (stereo not given) | / | / | 0.7 | -4 | /
CCOC(=O)C1=C(C)N=c2s/c(=C/c3cccc([N+](=O)[O-])c3O)c(=O)n2C1c1cc(OC)c(OC)c(OC)c1 (stereo not given) | / | / | 3.5 | 53 | /
COCCNC(=O)/C(C#N)=C/c1c(N2CCN(C)CC2)nc2ccccn2c1=O | / | / | -75 | 4 | /
Cc1ccc(Cl)cc1NC(=O)C(=O)N/N=C/c1ccc2c(c1)OCO2 | / | / | -2.1 | 2 | /
O=c1[nH]c(CSc2nc(-c3ccc(F)cc3)cs2)nc2ccccc12 | -5% | 5 | -2.4 | 3 | -25
O=S(=O)(c1cccs1)N1CCc2ccccc21 | -1% | 1 | 2.3 | 7 | -35

Structural class, the entries above containing bromine
SMILES | Mtb H37Rv | Arbovirus anti | RecA splice inh | Mtb betalactam | YopH PTP inh | others
O=C(CCN1C(=O)/C(=C/c2cccc(Br)c2)SC1=S)NNC(=O)c1cccnc1 | 1% | 0 | -3.7 | / | -31
COc1ccc(Br)cc1S(=O)(=O)NNC(=O)c1c(C)nc2ccccn12 | -2% | 1 | 1.3 | 3 | /

Following part:
SMILES | Mtb H37Rv | Arbovirus anti | RecA splice inh | Mtb betalactam | YopH PTP inh | others
CCOC(=O)C1CCN(S(=O)(=O)c2ccccc2[N+](=O)[O-])CC1 | / | / | -3.4 | -7 | /
O=C(CN1CCC(C(=O)c2ccc(F)cc2)CC1)Nc1ccccc1 | 3% | 6 | 2.7 | -12 | -25
COc1cc2c(cc1NC(=O)c1cccnc1)CCCC2 | 2% | -8 | 7.2 | 3 | -47
COc1ccc(OCC(=O)Nc2nnc(S(=O)(=O)N3CCCCCC3)s2)cc1 | / | / | -1.7 | -5 | /
CC(C)(C)c1nc(SCC(=O)N2CCCC2)c2ccccc2n1 | 8% | -3 | -1.3 | 9 | /
CCOC(=O)C1Sc2[nH]c(=O)sc2C(c2ccc(Cl)cc2)C1C(=O)OCC (stereo not given) | -6% | 3 | 0.0 | -4 | -31
COc1ccc(OC)c(C(=O)NC(CC(N)=O)c2ccc(NCCN3CCCCC3)c([N+](=O)[O-])c2)c1 (stereo not given) | / | / | -2.8 | -1 | /
CCS(=O)(=O)N1Cc2ccccc2CC1C(=O)OCC(=O)N(C(C)C)C(C)C (stereo not given) | 0% | 3 | 1.1 | -8 | /
Cc1nc(N2CCCCC2)c2c(-c3cccs3)csc2n1 | -3% | 7 | 22 | -1 | /
O=C(NCCO)c1ccccc1O | -3% | 7 | 0.7 | -5 | -18
Cc1ccc(-c2csc3nnc(SCC(=O)Nc4cccc(C)n4)n23)cc1 | / | 2 | -13 | -10 | -18
CCn1c(=O)c([N+](=O)[O-])c(N2CCSCC2)c2ccccc21 | 0% | / | -2.9 | 4 | /
COc1ccc(-c2nn3c(-c4cccc(C)c4)nnc3s2)cc1OC | 2% | / | 2.0 | 79 | 23
CCN1CCN(C(=O)C(N)Cc2ccccc2)CC1 (stereo not given) | 0% | -1 | 1.9 | 0 | /
CCOC(=O)N1CCN(C(=O)NC2CCCCC2)CC1 | 1% | 0 | -1.6 | 4 | -49
Cc1nnc(SCC(=O)OC2CC(C)CCC2C(C)C)[nH]c1=O (stereo not given) | -5% | 12 | -0.8 | 0 | -20
